# Screens deposited in PubChem by Southern Research Institute.
# Mtb growth – Mycobacterium tuberculosis H37Rv growth inhibition, cell based, confirmatory dose response (AID 1949) | most inactive calls were filed without a number and no value below 0 was filed | inhibition, % at 10 µg/mL; hits with a dose series show IC50 in µg/mL | actives 1.6% (n = 100,000);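 active = confirmed in a dose series; inconclusive = about 50% or more but not retested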;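 also: bacteria grown 7 days with compound before Alamar blue readout; 0% = untreated bacteria and 100% = reference antibiotic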
# The depositor's hits bear a star; i = inactive; ? = inconclusive. This is a subset; count on the stated rates, not on these rows.
Structure	Mtb growth
COc1ccc(-c2nn(C)c(=O)c3ccccc23)cc1CNC(=O)Nc1ccccc1	i
CC(=O)Nc1cccc(NC(=O)c2cc3ccccc3oc2=O)c1	i
CS(=O)(=O)N(Cc1ccccc1Cl)c1ccc(C(=O)Nc2ccccc2C(=O)N2CCOCC2)cc1	2%
COC(=O)Nc1nnc(CC2CCCC2)s1	i
CCc1ccc(N(CC(=O)NCCSCc2ccc(Cl)cc2)S(C)(=O)=O)cc1	i
C#CCOc1cc(Br)c(C2NC(=S)NC(C)=C2C(=O)NCc2ccccc2)cc1OCC (stereo unspecified)	i
O=[N+]([O-])c1nn(Cc2ccccc2Cl)cc1Br	i
COc1cccc2cc(-c3nnc(SCC(=O)Nc4ccccc4)n3C)oc12	0%
CCc1cccc(C)c1NC(=O)CN(c1ccc(F)cc1)S(C)(=O)=O	i
CC(O)CNC(=O)COc1ccccc1 (stereo unspecified)	i

# Other compounds.
Structure	Mtb growth
O=C(CN1CCN(Cc2ccccc2)CC1)NCC1COc2ccccc2O1 (stereo unspecified)	i
CCOC(=O)c1ccc(NC(=S)NCC(C)C)cc1	2%
Clc1ccccc1C1=CC(c2ccco2)n2nnnc2N1 (stereo unspecified)	i
Cc1c(Cc2ccccc2)sc(NC(=O)COc2ccc3ccccc3c2)c1C(N)=O	i
CCN1CCN(c2oc(-c3ccccc3)nc2C#N)CC1	i
Cc1nnc2sc(-c3cccc(NC(=O)c4cccnc4)c3)nn12	i
CCCNC(=O)c1ccc(OCc2ccccc2)c(OC)c1	i
CCCCC(=O)Nc1ccc(C(=O)N2CCCC(C(=O)OCC)C2)cc1 (stereo unspecified)	i
Fc1ccc(NC(=S)Nc2ccccc2F)cc1	i
CCOC(=O)c1ccc(NC(=O)Nc2ccn(Cc3c(F)cccc3Cl)n2)cc1	i

# The results go on:
Structure	Mtb growth
Cc1ccc(SCC(=O)NC2CC(C)(C)NC(C)(C)C2)cc1	i
COc1ccc(C(=O)N2CCN(CCN3C(=O)c4cccc5cccc(c45)C3=O)CC2)cc1OC	i
CSc1ccccc1NC(=O)C1CC(c2ccccc2Cl)=NO1 (stereo unspecified)	i
CCc1ccc(OCC(=O)NC(=S)Nc2ccc(C)c(Cl)c2)cc1	11%
COc1ccccc1NC(=O)c1cn(-c2ccccc2)nc1-c1cccc(Br)c1	i
COc1cccc2cc(C(=O)C3=C(O)C(=O)N(Cc4ccco4)C3c3ccc(F)cc3)oc12 (stereo unspecified)	i
O=C(Nc1cccc(-c2nc3ccccc3[nH]2)c1)c1cccc(F)c1	3%
CCOC(=O)C1CCN(C(=O)CN(c2ccc(C(C)C)cc2)S(=O)(=O)c2ccccc2)CC1	i
Cc1cc(OCC(=O)N2CCOCC2)c(C)cc1Br	i
COc1ccc(S(=O)(=O)N2CCC(C(=O)N3CCc4ccccc4C3)CC2)cc1OC	1%

# Other compounds:
Structure	Mtb growth
CCc1cccc(C)c1NC(=O)c1cc(-c2ccc(OC)cc2)nc2ccccc12	i
COc1ccc(NC(=S)NCCc2ccc(F)cc2)cc1OC	4%
CCOc1ccc(NC(=O)C(C)Sc2nnc(NC(=O)c3ccccc3Cl)s2)cc1 (stereo unspecified)	i
CCOC(=O)c1ccc(NC(=O)C(=O)NCCCOC(C)C)cc1	i
COc1ccc(S(=O)(=O)N(C(C)=O)c2ccc(OC(C)=O)c3ccccc23)cc1	i
Cc1cc(Cl)ccc1NC(=O)C1CCN(C(=O)c2ccc(Br)cc2)CC1	i
COc1ccccc1NC(=O)c1ccc(N(Cc2ccc(Cl)cc2)S(C)(=O)=O)cc1	i
CCc1nn2c(=O)cc(N3CCN(c4cc(C)nc5ccccc45)CC3)nc2s1	1%
Cc1c(C(=O)N(Cc2ccccc2)Cc2ccccc2)oc2ccccc12	i
CCCCC(=O)Nc1cccc(NC(=S)NC(C)=O)c1	i

# The list goes on; the last 5 above are carried over.
Structure	Mtb growth
Cc1cc(Cl)ccc1NC(=O)C1CCN(C(=O)c2ccc(Br)cc2)CC1	i
COc1ccccc1NC(=O)c1ccc(N(Cc2ccc(Cl)cc2)S(C)(=O)=O)cc1	i
CCc1nn2c(=O)cc(N3CCN(c4cc(C)nc5ccccc45)CC3)nc2s1	1%
Cc1c(C(=O)N(Cc2ccccc2)Cc2ccccc2)oc2ccccc12	i
CCCCC(=O)Nc1cccc(NC(=S)NC(C)=O)c1	i
CC(=O)Nc1ccc(NC(=O)c2ccc(COc3ccc(Cl)cc3Cl)o2)cc1	i
CCCCCSc1nc2ccccc2c(=O)n1Cc1ccccc1	5%
CC1(C(=O)N2CCN(S(C)(=O)=O)CC2)CC1(Cl)Cl (stereo unspecified)	0%
CC(C)CN(CC(C)C)C(=O)c1cccc(Br)c1	i
COc1ccc(-c2cc(-c3ccccc3)nc(-n3nc(C)cc3C)n2)cc1	4.2µg/mL*
CCOc1ccc(C(=O)Nc2cc(Cl)ccc2OC)cc1Br	i
Cc1ccc(CNC(=O)c2cccc(Cn3cc(Cl)cn3)c2)cc1	4%
COc1cc(NC(=O)CCN2CCN(C)CC2)cc(OC)c1	i
Cc1cccc(OCC(=O)c2ccc(F)cc2)c1C	4%
CCCCC1(CC(=O)OCC)C(=O)N(c2ccccc2)N(c2ccccc2)C1=O	i

# Additional compounds follow:
Structure	Mtb growth
CCn1c(CSCc2ccccc2)nnc1SCC(=O)Nc1ccc(Br)c(C)c1C	4%
CCN=C(Nc1ccc2c(c1)OCO2)SC1CC(=O)N(c2ccc(Cl)cc2)C1=O (stereo unspecified)	1%
COc1ccc(C(=O)Cc2cc3c(ccc4ccccc43)oc2=O)c(OC)c1	i
O=C(CN1CCN(c2ccccc2)CC1)N1N=CCC1c1ccccc1 (stereo unspecified)	2%
COc1c(C)cccc1C(=O)Nc1ccc(CN2CCOCC2)cc1	i
c1ccc(CN2CCN(CCN3CCn4c3nc3ccccc34)CC2)cc1	i
Cc1ccc2nc(SCCC#N)nc(C)c2c1	i
O=C(Nc1ccccc1[N+](=O)[O-])c1ccc(Cl)s1	i
CC(C)Oc1ccc(NC(=O)C(Cl)Cl)cc1	?
NS(=O)(=O)c1ccc(NC(=O)CN2CCN(c3ccccc3F)CC2)cc1	i

# (further entries)
Structure	Mtb growth
CCOC(=O)c1ccc(NC(=O)C(C)Oc2cccc(Cl)c2)cc1 (stereo unspecified)	i
O=C1CC(Nc2ccc(CCO)cc2)C(=O)N1c1ccc(Cl)cc1 (stereo unspecified)	i
O=C(c1ccc(S(=O)(=O)N2CCOCC2)cc1)N1CCN(c2ccccn2)CC1	i
Cc1cc(C)n(-c2cc(N3CCN(C(=O)c4ccc(OC(C)C)cc4)CC3)ccc2[N+](=O)[O-])n1	7%
CCOC(=O)c1c(NC(C)=O)sc2c1CCc1ccccc1-2	i
COc1ccc(CNC(C)C)c(OC)c1OC	i
CCCOc1ccc(N2CC(C(=O)Nc3ccccc3Cl)CC2=O)cc1 (stereo unspecified)	i
CN(C)S(=O)(=O)Nc1ccc(Br)cc1F	2%
COc1cc2c(O)c3c(c(-c4ccc5c(c4)OCO5)c2cc1OC)C(=O)OC3	i
Cc1ccc(S(=O)(=O)NCCN2CCN(S(=O)(=O)c3ccc(C)cc3)CC2)cc1	i

# Continuation.
Structure	Mtb growth
C=CCSc1nnc(NC(=O)c2cccc(S(=O)(=O)N3CCCCC3)c2)s1	2%
COc1ccc(S(=O)(=O)N(C)C2CCS(=O)(=O)C2)cc1OC (stereo unspecified)	1%
O=C(CSc1ccc(Cl)cc1)Nc1ccc(N2CCN(Cc3ccccc3)CC2)cc1	i
O=C(CCN1C(=O)C2CCCCC2C1=O)N1CCc2ccccc2C1 (stereo unspecified)	i
O=C(CCC1CCCCC1)NC1CCCCCC1	i
Cc1cc(Cl)ccc1NC(=S)NCCc1c[nH]c2ccccc12	i
S=C(NC1CCCCC1)NN1CCOCC1	i
COC(=O)c1ccc(NC(=O)CN(c2ccc(F)cc2)S(C)(=O)=O)cc1	4%
CCCCOc1cccc(NC(=O)CSc2nnc(C)s2)c1	15%
O=C(NCC1(c2ccccc2)CCOCC1)C1(c2ccccc2)CCCC1	i

# Next compounds
Structure	Mtb growth
CS(=O)(=O)N1CCN(c2ccccc2NC(=O)c2ccc(Cl)cc2)CC1	4%
O=C(NCCCc1ccccc1)Nc1cccc(Cl)c1	35%
CCOc1cc(C(=O)Nc2c(C)cc(C)cc2Cl)cc(OCC)c1OCC	1%
CCCC(=O)c1ccc(N2CCN(C(=O)c3ccccc3)CC2)c(F)c1	2%
COc1ccc(NC(=S)Nc2ccccc2)cc1Cl	i
CC(NCc1ccc(F)cc1)C(O)c1ccccc1 (stereo unspecified)	i
Cc1cc(C)c(OCCOCCNC(C)C)c(C)c1	i
COc1ccc(CNC(=O)C(=O)NCc2ccncc2)cc1	i
O=C(Nc1nnc(C(F)(F)F)s1)c1c(F)c(F)c(F)c(F)c1F	5%
COc1ccc(OCCC(=O)NCc2ccccc2)cc1	13%

# (further entries)
Structure	Mtb growth
Clc1ccc(OCc2nc(-c3ccncc3)no2)cc1	5%
Cn1nc(-c2ccc(OCC(=O)N3CCN(c4ccccc4)CC3)cc2)c2ccccc2c1=O	1%
O=C(CSC1CC(=O)N(c2cc(Cl)cc(Cl)c2)C1=O)Nc1ccc(F)cc1 (stereo unspecified)	i
CC(=O)Nc1ccc(S(=O)(=O)N2CCN(S(=O)(=O)c3ccc(NC(C)=O)cc3)C(C)C2)cc1 (stereo unspecified)	i
O=Cc1cccc(OCC(=O)Nc2cccc(Cl)c2)c1	45µg/mL*
S=C(NCCc1ccccc1)Nc1ccc(Nc2ccccc2)cc1	3.9µg/mL*
CCOC(=O)C1CCCN(C2CC(=O)N(c3cccc(OC)c3)C2=O)C1 (stereo unspecified)	i
COc1cc(OC)cc(-c2nnc(SCc3ccc(F)cc3)o2)c1	i
CCOc1ccc(OCC)c(S(=O)(=O)NC2CC(C)(C)NC(C)(C)C2)c1	i
N#CCCCN1C(=O)C(O)(CC(=O)c2ccc(Br)s2)c2ccccc21 (stereo unspecified)	i

# (more compounds)
Structure	Mtb growth
Cc1cc(C(=O)Nc2nc3ccc(S(C)(=O)=O)cc3s2)c(C)o1	i
Cc1cccc(-c2noc(CCCC(=O)Nc3ccccc3C(F)(F)F)n2)c1	i
CCOc1ccc2nc(SCC(=O)Nc3c(C)n(C)n(-c4ccccc4)c3=O)sc2c1	i
O=C(NCc1ccco1)c1ccc2c(c1)C(=O)N(CC1CCCO1)C2=O (stereo unspecified)	i
O=S(=O)(Nc1ccc(S(=O)(=O)Nc2cccc(Cl)c2)cc1)c1ccc(F)cc1	i
Cc1nnc(SC2CC(=O)N(c3ccc(Cl)cc3)C2=O)s1 (stereo unspecified)	i
COc1cc(C)c(C)cc1S(=O)(=O)n1c(C)nc2ccccc21	i
CCc1nccn1S(=O)(=O)c1ccccc1[N+](=O)[O-]	i
Cc1ccc(OCCSc2nnc(-c3ccccc3)n2-c2ccc(F)cc2)cc1	i
C#CCOc1ccc(OC)cc1/C=C(/C#N)c1nc2ccccc2[nH]1	i

# The list goes on.
Structure	Mtb growth
CCOc1ccc(Br)cc1C1NC(=S)NC(C)=C1C(=O)OC(C)C (stereo unspecified)	0%
CCOc1ccc(C(=O)Nc2ccc(C)c([N+](=O)[O-])c2)cc1	i
O=S(=O)(c1cccc(F)c1)N1CCCC1	i
CSc1ccccc1NC(=O)c1cnn2cccnc12	i
COc1ccc(NC(=O)Nc2ccc(I)cc2)c(OC)c1	0%
CCCNC(=O)c1ccccc1NC(=O)c1cc(OC)cc(OC)c1	5%
CC(C)(C)c1ccc(OCCSc2nc3ncnc(N)c3[nH]2)cc1	11%
COC(=O)C(NS(=O)(=O)c1ccc(N2CCCC2=O)cc1)c1ccccc1 (stereo unspecified)	i
Cc1ccc(C(=O)NCCNC(=O)c2ccc(C)o2)o1	i
CCOC(=O)c1ccc(NC(=S)N2CCC(C(=O)OCC)CC2)cc1	i

# Another view of part of the listing above.
> COc1ccc(NC(=O)Nc2ccc(I)cc2)c(OC)c1
- Mtb growth = 0%

> CCCNC(=O)c1ccccc1NC(=O)c1cc(OC)cc(OC)c1
- Mtb growth = 5%

> CC(C)(C)c1ccc(OCCSc2nc3ncnc(N)c3[nH]2)cc1
- Mtb growth = 11%

# Following part:
Structure	Mtb growth
O=C1CC(c2ccc(S(=O)(=O)N3CCN(c4ccccc4)CC3)cc2)CN1 (stereo unspecified)	i
COc1ccc(N2C(=O)CC(NCCc3ccc(Cl)cc3Cl)C2=O)cc1 (stereo unspecified)	i
COc1cc(-c2ncc3ccccn23)cc(OC)c1OC	i
CCOc1ccccc1NC(=O)NNC(=O)c1ccccc1F	i
COc1ccc(-c2nnc(SCC(=O)Nc3ccc(F)c(F)c3)n2-c2ccc(Cl)cc2)cc1	i
O=C(c1ccc(Cl)cc1Cl)N1CCn2c1nc1ccccc12	0%
O=C(NCc1cccnc1)c1cc(Cl)ccc1Cl	i
COC(=O)C(C)NC(=O)c1ccc(S(=O)(=O)N2CCCC2)cc1 (stereo unspecified)	i
CCC(=O)Oc1ccc(C(=O)Nc2ccc(OC(F)(F)F)cc2)cc1	i
COc1cc(SC)ccc1C(=O)Nc1cccc(C(F)(F)F)c1	i

# Next section:
Structure	Mtb growth
Cc1c(C)c(C)c(COc2ccc3ccc(=O)oc3c2)c(C)c1C	i
OCCNCCOCCOc1ccccc1-c1ccccc1	i
CC(C)OC(=O)c1cccc(NC(=O)CSc2nnc(CNC(=O)c3cccs3)n2C)c1	i
CCc1cccc(C)c1NC(=O)CSc1nnc(COc2ccc(C(C)C)cc2)n1C	i
O=C(c1ccccc1)n1ccc2ccccc21	i
O=C(CCc1ccc(S(=O)(=O)NCCc2ccccc2)cc1)N1CCN(Cc2ccccc2)CC1	0%
